High-throughput results: PubChem BioAssay, Broad Institute
A1 apoptosis 2: A1 inhibition read as caspase activation; AID 2465; caspase activation, % (test concentration not listed); MEF A1-2A-BIM cells, caspase-Glo luminescence, 3 h; percent of clofoctol response, DMSO zero; 24,000 tested, under 10 active; in the data active = caspase activation above about 5.9%; inconclusive = no clear call, values can overlap the other calls; inactive = below about 2.2%;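 also: wells of about 30 µL received 50 nL stock; the first replicate is given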
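System: mouse embryonic fibroblasts co-expressing A1 and BIM (A1-2A-BIM), primed for A1 dependence; amount: 2500 cells/well; doses: 50 nL pinned compound; schedule: cells settled overnight, compound exposure 3 h at 37 °C, 5% CO2; detection: Caspase-Glo 3/7 luminescence, 1 h at room temperature; read-out: Caspase-3/7 activation, seen as rise in luminescence signal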
* marks the source's active call; other numbers are inactive results; ? = inconclusive.

SMILES | A1 apoptosis 2
C[C@H](CO)N1C[C@H](C)[C@@H](CN(C)S(=O)(=O)c2ccc(Cl)cc2)OCCCC[C@H](C)Oc2ccc(NC(=O)CCCN(C)C)cc2C1=O | -1.3
C[C@@H]1CN([C@@H](C)CO)C(=O)Cc2cc(NS(=O)(=O)c3cccs3)ccc2O[C@@H]1CN(C)Cc1ccc(-c2ccccc2)cc1 | 0.7
Cc1ccc(S(=O)(=O)Nc2ccc3c(c2)C(=O)N([C@@H](C)CO)C[C@@H](C)[C@@H](CN(C)S(=O)(=O)c2ccccc2)OCCCC[C@@H](C)O3)cc1 | -0.2
C[C@@H]1CN([C@H](C)CO)C(=O)Cc2cc(NC(=O)CCCCCC(=O)Nc3ccccc3N)ccc2O[C@H]1CN(C)CC1CC1 | -0.8
C[C@H]1CN([C@@H](C)CO)C(=O)c2cc(NC(=O)CCCCCC(=O)Nc3ccccc3N)ccc2O[C@@H]1CN(C)C(=O)Nc1cccc2ccccc12 | -0.1
C[C@H](CO)N1C[C@H](C)[C@@H](CN(C)Cc2ccc(C(F)(F)F)cc2)Oc2c(NS(=O)(=O)c3cccs3)cccc2C1=O | -1.1
C[C@@H]1CN([C@@H](C)CO)C(=O)Cc2cc(NC(=O)NC3CCCCC3)ccc2O[C@@H]1CN(C)C(=O)Nc1ccc(F)cc1 | -0.5
Cc1noc(C)c1NC(=O)N(C)C[C@@H]1Oc2ccc(NC(=O)CCCCCC(=O)Nc3ccccc3N)cc2C(=O)N([C@H](C)CO)C[C@@H]1C | 0.3
C[C@@H]1CN([C@@H](C)CO)C(=O)c2cccc(NS(C)(=O)=O)c2O[C@H]1CN(C)C(=O)Nc1cccc2ccccc12 | 0.2
C[C@@H]1CN([C@H](C)CO)C(=O)c2cccc(NC(=O)NC3CCCCC3)c2O[C@@H]1CN(C)S(=O)(=O)c1ccccc1 | -0.1
COc1ccc(S(=O)(=O)N(C)C[C@H]2Oc3ccc(NC(=O)Cc4ccccc4)cc3C(=O)N([C@@H](C)CO)C[C@H]2C)cc1 | 0.4
C[C@H](CO)N1C[C@H](C)[C@H](CN(C)S(=O)(=O)c2ccc(F)cc2)Oc2ccc(NC(=O)C3CCCCC3)cc2C1=O | 0.5
Cc1noc(C)c1S(=O)(=O)Nc1ccc2c(c1)C(=O)N([C@@H](C)CO)C[C@H](C)[C@@H](CN(C)C(=O)Nc1ccc(C(F)(F)F)cc1)OCCCC[C@@H](C)O2 | -0.1
COC(=O)CCCCCCC(=O)N/N=C/c1ccc(OCCO)cc1 | -0.1
Cc1noc(C)c1S(=O)(=O)N(C)C[C@@H]1OCCCC[C@@H](C)Oc2ccc(NC(=O)Nc3ccccc3)cc2C(=O)N([C@H](C)CO)C[C@H]1C | -0.2
C[C@H](CO)N1C[C@H](C)[C@@H](CN(C)C(=O)Nc2ccc(F)cc2)Oc2ccc(NC(=O)Nc3ccc4c(c3)OCO4)cc2C1=O | 0.5
C[C@@H]1CN([C@H](C)CO)C(=O)Cc2cc(NC(=O)Nc3ccc(C(F)(F)F)cc3)ccc2O[C@H]1CN(C)CC1CC1 | -0.3
C[C@@H]1CCCCO[C@@H](CN(C)CC2CCCCC2)[C@H](C)CN([C@H](C)CO)C(=O)c2cc(NS(=O)(=O)c3ccc(Cl)cc3)ccc2O1 | -1.2
C[C@@H]1CN([C@@H](C)CO)C(=O)c2cccc(NC(=O)Nc3ccc(F)cc3)c2O[C@@H]1CN(C)Cc1ccc(C(F)(F)F)cc1 | -0.3
Cc1noc(C)c1NC(=O)N(C)C[C@H]1Oc2ccc(NS(=O)(=O)c3cccs3)cc2C(=O)N([C@@H](C)CO)C[C@H]1C | 1.1
C[C@H](CO)N1C[C@H](C)[C@H](CN(C)C(=O)Nc2ccc(C(F)(F)F)cc2)Oc2ccc(NC(=O)CCCCCC(=O)Nc3ccccc3N)cc2CC1=O | 0.1
COc1ccc(NC(=O)N(C)C[C@@H]2Oc3ccc(NC(=O)Nc4ccc5c(c4)OCO5)cc3CC(=O)N([C@@H](C)CO)C[C@@H]2C)cc1 | -0.8
C[C@@H]1CN([C@H](C)CO)C(=O)CCCn2cc(nn2)CO[C@H]1CN(C)Cc1ccc2c(c1)OCO2 | -0.2
Cc1noc(C)c1S(=O)(=O)Nc1ccc2c(c1)C(=O)N([C@@H](C)CO)C[C@@H](C)[C@H](CN(C)C(=O)Nc1ccc(F)cc1)O2 | 0.3
Cc1noc(C)c1S(=O)(=O)N(C)C[C@H]1OCCCC[C@H](C)Oc2ccc(NS(=O)(=O)c3cccs3)cc2C(=O)N([C@H](C)CO)C[C@@H]1C | 0.5
C[C@H]1CCCCO[C@H](CN(C)Cc2ccncc2)[C@@H](C)CN([C@@H](C)CO)C(=O)c2cc(NC(=O)CCCN(C)C)ccc2O1 | 1.6
C[C@@H]1CN([C@@H](C)CO)C(=O)c2cc(NC(=O)c3ccncc3)ccc2O[C@@H]1CN(C)S(=O)(=O)c1cccs1 | 0.6
Cc1noc(C)c1S(=O)(=O)Nc1ccc2c(c1)C(=O)N([C@@H](C)CO)C[C@H](C)[C@@H](CN(C)C)OCCCC[C@@H](C)O2 | -1.0
C[C@@H]1CN([C@H](C)CO)C(=O)c2cc(NS(=O)(=O)c3cccs3)ccc2O[C@H]1CN(C)S(=O)(=O)c1cccs1 | -0.6
CCO[C@H]1OC(C(=O)Nc2ccccc2)=C[C@@H](c2ccc(Br)cc2)[C@@H]1CCCO | -0.6
C[C@H]1CN([C@@H](C)CO)C(=O)c2cccc(NC(=O)c3ccc(-c4nccs4)cc3)c2O[C@@H]1CN(C)C(=O)Nc1ccc2c(c1)OCO2 | -0.2
C[C@@H]1CCCCO[C@H](CN(C)S(=O)(=O)c2cn(C)cn2)[C@@H](C)CN([C@@H](C)CO)C(=O)c2cc(NS(=O)(=O)c3ccccc3)ccc2O1 | ?
C[C@@H]1CN([C@@H](C)CO)C(=O)Cc2cc(NC(=O)CCC(F)(F)F)ccc2O[C@@H]1CN(C)S(=O)(=O)c1cn(C)cn1 | -0.1
C[C@H](CO)N1C[C@H](C)[C@@H](CN(C)S(=O)(=O)c2ccc(F)cc2)OCCCC[C@H](C)Oc2ccc(NS(=O)(=O)c3ccc(Cl)cc3)cc2C1=O | 0.3
C[C@@H]1CCCCO[C@H](CN(C)C(=O)c2ccncc2)[C@@H](C)CN([C@H](C)CO)C(=O)c2cc(NS(C)(=O)=O)ccc2O1 | 1.2
C=CCNC(=O)[C@H]1[C@@H]2C(=O)O[C@@H](c3ccccc3)[C@@H](c3ccccc3)N2[C@@H](c2ccc(OCCO)cc2)[C@]12C(=O)N(C(=O)OCCOC)c1ccc(C#CC3=CCCCC3)cc12 | -1.1

Exported as labelled records: entries from further up
C[C@H]1CN([C@@H](C)CO)C(=O)c2cccc(NC(=O)c3ccc(-c4nccs4)cc3)c2O[C@@H]1CN(C)C(=O)Nc1ccc2c(c1)OCO2
  A1 apoptosis 2: -0.2
C[C@@H]1CCCCO[C@H](CN(C)S(=O)(=O)c2cn(C)cn2)[C@@H](C)CN([C@@H](C)CO)C(=O)c2cc(NS(=O)(=O)c3ccccc3)ccc2O1
  A1 apoptosis 2: ?
C[C@@H]1CN([C@@H](C)CO)C(=O)Cc2cc(NC(=O)CCC(F)(F)F)ccc2O[C@@H]1CN(C)S(=O)(=O)c1cn(C)cn1
  A1 apoptosis 2: -0.1
C[C@H](CO)N1C[C@H](C)[C@@H](CN(C)S(=O)(=O)c2ccc(F)cc2)OCCCC[C@H](C)Oc2ccc(NS(=O)(=O)c3ccc(Cl)cc3)cc2C1=O
  A1 apoptosis 2: 0.3

The results go on.
SMILES | A1 apoptosis 2
COc1ccc([Si](C)(C)[C@H]2[C@H](CCO)O[C@@]3(C(=O)N(Cc4ccccc4)c4ccc(N5CCC5=O)cc43)[C@@H]2C)cc1 | -1.1
C[C@@H]1CN([C@@H](C)CO)C(=O)c2cccc(NC(=O)C3CCOCC3)c2O[C@@H]1CN(C)CC1CC1 | 0.8
C[C@@H]1CCCCO[C@@H](CN(C)Cc2ccc(C(=O)O)cc2)[C@H](C)CN([C@H](C)CO)C(=O)c2cc(NC(=O)NC3CCCCC3)ccc2O1 | 0.4
C[C@H](CO)N1C[C@H](C)[C@H](CN(C)Cc2ccccc2)Oc2ccc(NS(=O)(=O)c3cn(C)cn3)cc2CC1=O | 0.4
C[C@H](CO)N1C[C@H](C)[C@H](CN(C)C)Oc2ccc(NC(=O)Cn3cnnn3)cc2CC1=O | 0.0
C[C@@H]1CN([C@H](C)CO)C(=O)c2cc(NC(=O)Cc3ccccc3)ccc2O[C@@H](C)CCCCO[C@H]1CN(C)S(C)(=O)=O | -0.7
COC(=O)[C@H](Cc1ccccc1)N1CC2=C[C@@H](C3CC3)n3c(=O)n(C)c(=O)n3[C@H]2[C@@H]1[C@@H](O)Cc1ccccc1 | 0.7
Cc1ccc(S(=O)(=O)Nc2ccc3c(c2)C(=O)N([C@@H](C)CO)C[C@H](C)[C@H](CN(C)Cc2ccc(Cl)c(Cl)c2)O3)cc1 | -0.9
COc1ccc(CN(C)C[C@@H]2OCCCC[C@H](C)Oc3ccc(NS(=O)(=O)c4ccccc4)cc3C(=O)N([C@H](C)CO)C[C@@H]2C)cc1 | 0.3
C[C@H](CO)N1C[C@H](C)[C@H](CN(C)S(=O)(=O)c2ccccc2)Oc2ncc(C#CCN(C)C)cc2C1=O | -0.5
Cc1ccc(S(=O)(=O)N(C)C[C@H]2Oc3ccc(NC(=O)NC4CCCCC4)cc3CC(=O)N([C@H](C)CO)C[C@@H]2C)cc1 | 0.7
C[C@H](CO)N1C[C@H](C)[C@@H](CN(C)C(=O)CCC(F)(F)F)OCCCC[C@H](C)Oc2ccc(NC(=O)CCCN(C)C)cc2C1=O | -1.4

In another format: entries from further up
Compound	A1 apoptosis 2
C[C@H](CO)N1C[C@H](C)[C@H](CN(C)C)Oc2ccc(NC(=O)Cn3cnnn3)cc2CC1=O	0.0
C[C@H](CO)N1C[C@H](C)[C@H](CN(C)Cc2ccccc2)Oc2ccc(NS(=O)(=O)c3cn(C)cn3)cc2CC1=O	0.4

Going on with the list:
SMILES | A1 apoptosis 2
C[C@@H]1CN([C@@H](C)CO)C(=O)CCCn2cc(nn2)CO[C@H]1CN(C)C(=O)c1ccccc1 | -0.8
C[C@@H]1CCCCO[C@@H](CN(C)C(=O)Nc2ccc3c(c2)OCO3)[C@@H](C)CN([C@@H](C)CO)C(=O)c2cc(NC(=O)c3ccccc3)ccc2O1 | 1.3
CNC[C@@H]1Oc2ccc(NC(=O)Nc3ccc4c(c3)OCO4)cc2C(=O)N([C@@H](C)CO)C[C@H]1C | -0.8
C[C@H]1CN([C@@H](C)CO)C(=O)c2cc(NC(=O)NC3CCCCC3)ccc2O[C@H]1CN(C)S(=O)(=O)c1cccs1 | -0.7
C[C@@H]1CCCCO[C@H](CN(C)Cc2ccc3c(c2)OCO3)[C@@H](C)CN([C@@H](C)CO)C(=O)c2cc(NC(=O)Nc3ccc(F)cc3)ccc2O1 | 0.8
C[C@@H]1CN([C@@H](C)CO)C(=O)c2cccc(NC(=O)Nc3ccccc3)c2O[C@@H]1CN(C)C(=O)NC1CCCCC1 | 0.8
C[C@@H]1CN([C@@H](C)CO)C(=O)Cc2cc(NC(=O)Nc3ccccc3)ccc2O[C@H]1CN(C)CC1CC1 | -1.1
C[C@@H]1CN([C@@H](C)CO)C(=O)c2cccc(NS(=O)(=O)c3cn(C)cn3)c2O[C@@H]1CN(C)C(=O)Nc1cccc2ccccc12 | 0.5
CC(C)NC(=O)Nc1ccc2c(c1)C(=O)N([C@H](C)CO)C[C@H](C)[C@H](CN(C)S(=O)(=O)c1ccccc1)OCCCC[C@@H](C)O2 | -1.6
CNC[C@@H]1OCCCC[C@H](C)Oc2ccc(NC(=O)Cc3ccccc3)cc2C(=O)N([C@@H](C)CO)C[C@@H]1C | 0.8
COc1ccc(NC(=O)N(C)C[C@H]2OCCCC[C@@H](C)Oc3ccc(NS(=O)(=O)c4cn(C)cn4)cc3C(=O)N([C@H](C)CO)C[C@H]2C)cc1 | -0.8
C[C@@H]1CN([C@@H](C)CO)C(=O)c2cc(NS(=O)(=O)c3cccs3)ccc2O[C@@H](C)CCCCO[C@@H]1CN(C)Cc1ccc(C(F)(F)F)cc1 | -1.5
COc1ccc(S(=O)(=O)Nc2ccc3c(c2)CC(=O)N([C@@H](C)CO)C[C@H](C)[C@@H](CN(C)S(C)(=O)=O)O3)cc1 | 1.4
C[C@@H]1CN([C@H](C)CO)C(=O)c2cccc(NC(=O)c3cnccn3)c2O[C@H]1CN(C)Cc1ccc(C(=O)O)cc1 | -1.2
C[C@H]1CN([C@@H](C)CO)C(=O)Cc2cc(NC(=O)CCCCCC(=O)Nc3ccccc3N)ccc2O[C@H]1CN(C)C(=O)Nc1ccc(F)cc1 | 2.0
C[C@H]1CN([C@@H](C)CO)C(=O)Cc2cc(NC(=O)C3CCCCC3)ccc2O[C@@H]1CN(C)S(C)(=O)=O | 1.4
C[C@@H]1CN([C@@H](C)CO)C(=O)Cc2cc(NC(=O)Cc3ccccc3)ccc2O[C@H]1CN(C)S(=O)(=O)c1cccs1 | 1.2
COC(=O)CCCCCCC(=O)N/N=C/c1ccc(Br)cc1 | 1.2
Cc1noc(C)c1S(=O)(=O)Nc1ccc2c(c1)C(=O)N([C@@H](C)CO)C[C@H](C)[C@H](CN(C)Cc1ccncc1)OCCCC[C@@H](C)O2 | -0.7
COc1ccc(NC(=O)N(C)C[C@@H]2OCCCC[C@@H](C)Oc3ccc(NC(=O)Cc4ccccc4)cc3C(=O)N([C@@H](C)CO)C[C@H]2C)cc1 | -0.3
Cc1noc(C)c1S(=O)(=O)N(C)C[C@@H]1Oc2c(NS(=O)(=O)c3ccccc3)cccc2C(=O)N([C@H](C)CO)C[C@@H]1C | -0.1

Some of the compounds tested; count on the stated rates, not on these rows.
